Source: PubChem BioAssay
HPGD inh = inhibitors of human 15-hydroxyprostaglandin dehydrogenase (HPGD); P15428; AID 894; Potency, µM, inactives show at the top dose activity change, negative = inhibition, usual class: inhibitors; purified HPGD, NADH fluorescence kinetic, PGE2 substrate; 150,000 tested, 4.3% active; active = well fitted inhibition curve with a large enough effect (not every such curve was filed as active); inconclusive = small, poorly fitted or top-dose-only effect, or another doubt; inactive = no such curve, though single readings can be large or run the other way;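 also: top concentration of the series not given in the record; plate controls included wells without enzyme; inactives centre near -10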
Target sequence (P15428 whole entry, looked up): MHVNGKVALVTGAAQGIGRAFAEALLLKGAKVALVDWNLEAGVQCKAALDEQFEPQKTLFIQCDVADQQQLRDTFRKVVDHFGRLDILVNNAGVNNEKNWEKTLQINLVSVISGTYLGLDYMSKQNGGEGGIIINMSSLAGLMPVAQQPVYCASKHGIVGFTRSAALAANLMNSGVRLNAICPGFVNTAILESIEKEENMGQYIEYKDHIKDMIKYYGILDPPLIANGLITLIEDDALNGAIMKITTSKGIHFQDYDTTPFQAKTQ
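NADH formation kinetics: reaction with 30 uM PGE2 and 1 mM NAD+ (final), 20 nM enzyme, Tris-HCl pH 8 with Tween 20, after 15 min compound preincubation at room temperature. Fluorescence change, last versus first of five reads.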
Starred values were filed as active, the others as inactive; u = inconclusive. % is scaled to controls: 0 for no effect and ±100 for the full control effect; potency is read from the fitted curve at half-maximal effect. Not all compounds are listed, so the mix of outcomes need not match the whole.

HPGD inh | SMILES
-2% | Cc1nc(C(F)(F)F)c(C(=O)NC(=O)Nc2ccccc2)s1
-6% | Cc1ccc(/C=N/NC(=O)CSc2nc3ccccc3n2Cc2ccccc2)o1
-3% | CCc1nnc(NC(=O)CN2CCN(c3nc(-c4ccccc4)cs3)CC2)s1
-16% | COc1ccc(C2CC(c3ccc(F)cc3)Nc3nc(N)nn32)cc1 (centres undefined)
-2% | CCN(c1ccccc1)S(=O)(=O)c1ccc(OC)c(OC)c1
-16% | O=C1C2CC=CCC2C(=O)N1c1ccc(OCC(O)Cn2nnc3ccccc32)cc1 (centres undefined)
-4% | CCc1ccc(C(=O)N/N=C/c2cccc3ccccc23)nc1
u | COc1ccc2[nH]c(=O)c(CN(CCN(C)C)C(=O)NCc3ccccc3)cc2c1
-8% | O=C(OCCOCCO)c1ccccc1Nc1cccc(C(F)(F)F)c1
-9% | Cc1nc(/N=C(\N)NC(=O)c2ccccc2)nc2ccccc12
-8% | Cc1nn(-c2cc(N3CCNCC3)ccc2[N+](=O)[O-])c(=O)c2ccccc12
-1% | CCOC(=O)c1cnc(SC2CC(=O)N(c3ccccc3)C2=O)nc1N (centres undefined)
-11% | COc1ccc(C(=O)c2ccc(Cl)cc2Cl)cc1
-15% | CCOc1cccc(-c2nnc(SCC(=O)Nc3cc(C)ccc3OC)n2N)c1
3% | O=C(CCNS(=O)(=O)c1cccc2nsnc12)NCCC1=CCCCC1
-7% | CCCNc1nc2c(c(=O)n(C)c(=O)n2C)n1CCc1ccccc1
-19% | CCC/C=C(\CCC)C(NC(=O)CCc1ccccc1)c1ccc(C(F)(F)F)cc1 (centres undefined)
-1% | Cc1cccc(NC(=S)NCc2ccc3c(c2)OCO3)c1
-1% | O=C(CCC1CCCC1)NCCCN1CCOCC1
-10% | COc1ccc2nc(SCC(=O)Nc3ccc4c(c3)CCC4)[nH]c2c1
-7% | CN(C)c1ccc(/C=C2\SC(=S)N(Nc3ncc(C(F)(F)F)cc3Cl)C2=O)cc1
-5% | Cc1noc(C)c1Cc1c(Cl)cccc1Cl
-1% | CN(C(=O)COC(=O)C1CCN(S(=O)(=O)c2cccs2)CC1)C1CCS(=O)(=O)C1 (centres undefined)
-15% | Cc1nc(C)c(-c2nnc(-c3ccc(C(C)(C)C)cc3)o2)cc1C(=O)NN
-15% | Cc1ccc(N(CC(=O)N/N=C/c2cc(C)n(-c3ccccc3C)c2C)S(C)(=O)=O)cc1
-4% | O=C(Nn1c(-c2ccc(Cl)cc2)nc2ccccc2c1=O)c1cccnc1Cl
-8% | O=C(O)CN1C(=O)NC2NC(=O)NC21 (centres undefined)
-29% | C=CCN(CC=C)S(=O)(=O)c1ccc(C(=O)Nc2nc3c(s2)CCc2ccccc2-3)cc1
-8% | Cc1sc2ncn(-n3c(C)ccc3C)c(=O)c2c1C
-19% | CCCCNC(=O)c1cn(-c2ccc(OCC)cc2)c(=O)c2cc(OC)c(OC)cc12
-2% | COC(=O)CN(c1ccc2c(c1)OCO2)S(C)(=O)=O
-7% | O=C1NC(=O)C2(CCc3ccccc32)N1 (centres undefined)
-7% | Cc1ccc(S(=O)(=O)/C(C#N)=C/c2c[nH]c3ccccc23)cc1
-3% | CCc1nnc(SCCSc2nnc(CC)n2N)n1N
-3% | O=C(CSc1nnc(-c2cccs2)n1-c1ccccc1)N1CCOCC1
-4% | O=C(O)/C=C\C(=O)Nc1ccc2c(c1)C(=O)c1cc(F)ccc1-2
-11% | CS(=O)(=O)N(CCc1ccccc1)CC(=O)NCc1ccc2c(c1)OCO2
-23% | O=C(Nc1cc(Oc2ccc(Cl)cc2)cc([N+](=O)[O-])c1)c1ccco1
u | CCOC(=O)c1cc2c(C(F)(F)F)cc(-c3ccccc3)nc2o1
-6% | COc1ccccc1N1CCN(C(=O)C(=O)N/N=C/c2ccccc2F)CC1
0% | C=CCNC(=S)Nc1ccc(F)cc1F
-7% | OC1(c2cccc(F)c2)CCN(Cc2ccncc2)CC1
u | CC(C)Cn1c(-c2ccc(C#N)cc2)nc2c1c(=O)[nH]c(=O)n2CC(C)C
-12% | COc1ccc(NC(=O)c2cc(F)cc(F)c2)cc1Cl
-6% | O=c1c(-c2cc(F)cc(F)c2)nc2cnc(Oc3ccccc3)nc2n1C[C@H]1CCCO1
-14% | COc1cc(C)c(C)cc1S(=O)(=O)N1CCN(Cc2ccc3c(c2)OCO3)CC1
32µM* | c1ccc(Cn2nnc3c(N4CCCCCC4)ncnc32)cc1
-10% | CC1(OC(=O)CCc2ccccc2)C(=O)C=C2C=C(c3ccc(C#N)cc3)N(CCN3CCOCC3)C=C2C1=O (centres undefined)
-12% | COc1ccc2nc(NC(=O)CN3CCN(C)CC3)sc2c1
u | COC(=O)c1ccc(-c2cc(C(=O)O)c3cc4c(cc3n2)OCCO4)cc1
-17% | Cc1cc(NC(=O)c2cnn3cccnc23)no1
u | CC(C)Oc1ccc2c(=O)c3cc(C(=O)O)ccc3oc2c1
u | O=C(/C=C/c1ccc2c(c1)OCO2)NCCSCc1c(Cl)cccc1Cl
-14% | CCN(c1ccc2c(c1)OCO2)S(=O)(=O)c1cc(Br)cc2c1N(C(C)=O)CC2
-21% | CCN1CCN(c2c(Cl)cccc2NC(=O)c2ccc(Br)o2)CC1
-24% | CCOCCCn1c(=N)c(C(=O)NCc2ccc3c(c2)OCO3)cc2c(=O)n3cccc(C)c3nc21
-26% | Cc1ccsc1/C=N/Nc1nc(Cl)c(Cl)cc1Cl
-2% | COc1ccccc1N1CCN(C(c2ccccc2Cl)c2nnnn2C(C)(C)C)CC1 (centres undefined)
-21% | Cn1c(=O)c2cn(-c3cccc4ccccc34)cc2n(C)c1=O
-8% | COc1cc(OC)cc(C(=O)NC(C(=O)NCCN(C)C)C23CC4CC(CC(C4)C2)C3)c1 (centres undefined)

New compounds follow.
HPGD inh | SMILES
-20% | Cc1onc(-c2ccccc2)c1C(=O)NC(=S)NNC(=O)c1ccc(O)cc1O
1% | CC(C)c1nc(Cl)c(C#N)c2c1CCCC2
-11% | Cn1nc([N+](=O)[O-])nc1Oc1ccccc1
-7% | Cc1cccc(OCCC(=O)NCC(=O)Nc2c(C)cccc2C)c1
-6% | Cc1cccc(C(C)C)c1NC(=O)c1ccc(CN(c2ccccc2)S(=O)(=O)c2ccccc2)cc1
u | CCC1C(=O)n2nc(-c3ccccc3)cc2N=C1C (centres undefined)
-18% | O=C(Nc1ccc([N+](=O)[O-])cc1)Nc1nc(-c2ccc(Cl)s2)cs1
-3% | C=CCOC(=O)[C@H](O)[C@@H](O)C(=O)OCC=C
-12% | Cc1cc(C)n(-c2ccn(Cc3ccc(Cl)cc3Cl)c(=O)n2)n1
-8% | O=C(CC(Cc1ccccc1)C(=O)O)NCCc1ccc2c(c1)OCO2 (centres undefined)
-4% | Cc1ccc(Nc2cc(C)nn2-c2nc(C)cc(C)n2)cc1
-9% | O=[N+]([O-])c1cn(Cc2ccccc2)cn1
-6% | CC(=O)OC1CCC2(C)C3=C(CCC2C1(C)C)[C@]1(C)CCC(C(C)CCC=C(C)C)[C@]1(C)CC3 (some centres undefined)
-17% | Cn1c(SCC(=O)N2CCCCC2)nc2cccnc21
u | COc1cc2c(cc1NC(=S)Nc1ccccc1C)oc1ccccc12
-24% | C=CCn1c(SCC(N)=O)nnc1-c1cc2c(s1)CCC(CC)C2 (centres undefined)
-14% | CCCC(C(=O)NCc1ccccc1)N(C(=O)Cn1nnc(-c2cccs2)n1)c1ccc2c(c1)OCCO2 (centres undefined)
-9% | CCCCc1ccc(NC(=O)c2c(C)noc2C)cc1
u | O=C1CCCc2c1[nH]c1ccc(CN3CCCCC3)cc21
u | CCN(CC)Cc1c(O)c(Cl)cc2c(C)c(C)c(=O)oc12
u | CCCc1cc(-c2n[nH]c(=S)n2Cc2ccccc2)cs1
-8% | Cc1cc2cc(CCNC(=O)C3c4ccccc4Oc4ccccc43)c(=O)[nH]c2cc1C
-15% | Cc1nc(SCC(=O)c2cc3ccccc3oc2=O)c(C#N)c(C)c1C(=O)Nc1ccccc1
-6% | CC1(OC(=O)CCc2ccccc2)C(=O)C=C2C=C(C3CC3)OC=C2C1=O (centres undefined)
-1% | COc1cc(C2CC(=O)NC(SCC(=O)Nc3ccccc3C)=C2C#N)ccc1O (centres undefined)
-30% | Cc1ccc(-c2nc(N)sc2CC(=O)OCC(=O)N2C(C)CCCC2C)cc1 (centres undefined)
0% | O=C(Nc1cccc(NC(=O)c2cccs2)c1)c1ccco1
-12% | CCN(Cc1cc2cccc(C)c2[nH]c1=O)C(=O)c1ccccc1OC
u | Cc1ccc2sc(NC(=O)CSc3nc(C)cc(C)c3C#N)nc2c1
-20% | COc1cc(/C=N/NC(=O)C(=O)N2CCCC2)ccc1O
5% | O=c1cc(N2CCN(Cc3ccccc3)CC2)[nH]c(=O)n1-c1cccc(C(F)(F)F)c1
u | CCn1c(SCC(=O)Nc2ccc(NC(=O)c3ccco3)c(OC)c2)nc2ccccc2c1=O
-3% | CCOC(=O)c1cc2occc2n1CC(=O)Nc1ccc(OC)cc1OC
-27% | COCCCN1C(=O)C(O)=C(C(C)=O)C1c1cccc(F)c1 (centres undefined)
2% | CN1C(=O)SC(Nc2ccccc2)C1=O (centres undefined)
-8% | Cc1cc(C)cc(Cn2ncc(Cl)c(Cl)c2=O)c1
-5% | COc1ccc(NC(=O)N(C2CCCCC2)C2CCN(C(C)C)CC2)c(OC)c1
u | FC(F)(F)c1cc(-c2ccco2)nc(NCc2ccccc2)n1
u | C[N+](C)(CCCCCC[N+](C)(C)CCCN1C(=O)c2cccc3cccc(c23)C1=O)CCCN1C(=O)c2cccc3cccc(c23)C1=O
-14% | Cc1ccc(C2=Nc3ccccc3N=C(c3ccco3)C2)c(O)c1
-10% | COCCn1c(=O)cnc2cnc(OCc3ccccc3)nc21
2.5µM* | CN(C)C(=O)c1ccc(-c2nnc(NCc3ccccc3)c3ccccc23)cc1
-8% | CCOC(=O)N1CCC(n2c(SCC(=O)Nc3ccccc3OC)nc3ccccc3c2=O)CC1
0% | Fc1ccccc1OCCSc1nc2ccccc2o1
u | COc1cccc(/C=N/Nc2snc(SC)c2C#N)c1
-5% | CCCCOc1ccc(S(=O)(=O)NNC(=O)C2Cc3c(ccc4ccccc34)O2)cc1 (centres undefined)
-14% | CCOc1ccc(-n2c(SCC(N)=O)nc3c([nH]c4ccccc43)c2=O)cc1
-3% | CCCc1ccc(C(=O)NNC(=O)c2ccc(Br)cc2)cc1
-4% | COc1ccc2c(c1)CCc1c(C(=O)NCc3cccnc3)noc1-2
-2% | COC(=O)C1=C(C(=O)OC)[C@@H]2N(C)c3ccccc3[C@@]23C[C@@H](C(=O)OC)N=C3N1
-20% | Cc1c(C(=O)OCc2nc3scc(-c4ccccc4)c3c(=O)[nH]2)cccc1[N+](=O)[O-]
0% | O=C(CCCN1C(=O)c2ccccc2C1=O)NCc1cccnc1
-4% | CCC1Oc2ccccc2N(CC(=O)Nc2ccc3c(c2)OCCO3)C1=O (centres undefined)
11µM* | O=C(CCSCc1ccccc1Cl)NC1CCCC1
-8% | C=CCn1c(SCC(=O)NCc2ccc3c(c2)OCO3)nc2scc(-c3ccccc3)c2c1=O
u | O=C(CN1C(=O)c2cccc3cccc1c23)Nc1ccc(S(=O)(=O)N2CCOCC2)cc1
-8% | NC(=O)NC(=O)Nc1ccccc1Cl
-15% | Cc1cc(C)cc(N2Cc3ccccc3C2)c1
-12% | O=C(c1ccccc1F)N1CCN(Cc2ccccc2F)CC1
-11% | CC1(C)CC(=O)C(C#N)=C(NCCCO)C1

2 entries drawn at random from those above:
HPGD inh | SMILES
-5% | CCCCOc1ccc(S(=O)(=O)NNC(=O)C2Cc3c(ccc4ccccc34)O2)cc1 (centres undefined)
11µM* | O=C(CCSCc1ccccc1Cl)NC1CCCC1

Later entries
HPGD inh | SMILES
3.2µM* | S=C(NCc1ccco1)Nc1ccc(Cl)c(Cl)c1
u | O=c1c(O)c(-c2ccc(O)cc2)oc2ccccc12
u | N#Cc1nc(-c2cccs2)oc1NCC1CCCO1 (centres undefined)
-14% | Cn1ncc(Cl)c1C(=O)N1CCc2ccccc21

Grouped by structure: the entries above with an aryl thioether with sulfur outside any ring
HPGD inh | SMILES
-6% | Cc1ccc(/C=N/NC(=O)CSc2nc3ccccc3n2Cc2ccccc2)o1
-1% | CCOC(=O)c1cnc(SC2CC(=O)N(c3ccccc3)C2=O)nc1N (centres undefined)
-15% | CCOc1cccc(-c2nnc(SCC(=O)Nc3cc(C)ccc3OC)n2N)c1
-10% | COc1ccc2nc(SCC(=O)Nc3ccc4c(c3)CCC4)[nH]c2c1
-3% | CCc1nnc(SCCSc2nnc(CC)n2N)n1N
-3% | O=C(CSc1nnc(-c2cccs2)n1-c1ccccc1)N1CCOCC1
-17% | Cn1c(SCC(=O)N2CCCCC2)nc2cccnc21
-24% | C=CCn1c(SCC(N)=O)nnc1-c1cc2c(s1)CCC(CC)C2 (centres undefined)
-15% | Cc1nc(SCC(=O)c2cc3ccccc3oc2=O)c(C#N)c(C)c1C(=O)Nc1ccccc1
u | Cc1ccc2sc(NC(=O)CSc3nc(C)cc(C)c3C#N)nc2c1
u | CCn1c(SCC(=O)Nc2ccc(NC(=O)c3ccco3)c(OC)c2)nc2ccccc2c1=O
-8% | CCOC(=O)N1CCC(n2c(SCC(=O)Nc3ccccc3OC)nc3ccccc3c2=O)CC1
0% | Fc1ccccc1OCCSc1nc2ccccc2o1
u | COc1cccc(/C=N/Nc2snc(SC)c2C#N)c1
-14% | CCOc1ccc(-n2c(SCC(N)=O)nc3c([nH]c4ccccc43)c2=O)cc1
-8% | C=CCn1c(SCC(=O)NCc2ccc3c(c2)OCO3)nc2scc(-c3ccccc3)c2c1=O
